# Calb biofilm kill: mixtures killing C. albicans biofilm. AID 1242. C. albicans biofilm persisters + clotrimazole, fluorescence viability; primary screen in compound mixtures of four per well. 0.02% of 120,000 active. inhibition, % at 7.6 µM;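 active = inhibition above 30.3% in the primary screen of four-compound pools, then above 30% when the compound was retested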;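 also: compounds exposed to preformed 24 h biofilms for 48 h; the number belongs to the whole pool; some results filed as inactive read as strong as hits; inactives centre near 12; 0% = biofilm with clotrimazole alone and 100% = kill control; retested singly at about 60 µM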
#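 System: C. albicans CAF4-2 wild-type biofilms; Medium: RPMI/MOPS medium, pH 7.0; Reagent: Clotrimazole, 50 µg/mL; Times: biofilm formation 24 h, compound exposure 48 h, 37 °C; Detection: 2-h Alamar Blue fluorescence, 535/590 nm excitation/emission; Evaluation: percent inhibition of biofilm viability.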
# An asterisk follows results filed as active. The list is partial; rates above refer to the full screens.
compound,Calb biofilm kill
CC(C)(C)c1cc[n+](-c2nc([O-])sc2C=O)cc1,19
COCCN(C(=S)Nc1ccc(C)cc1C)C(C)c1cccs1 (centres undefined),18
Nc1nc(NCCCN2CCOCC2)nc(Nc2ccc(Cl)cc2)c1[N+](=O)[O-],15
CN(C(=O)COC(=O)/C=C/c1ccc(S(=O)(=O)N2CCc3ccccc32)cc1)C1CCS(=O)(=O)C1 (centres undefined),14
C/C(=N\NC(=O)Cc1c(C)[nH][nH]c1=O)c1cccc(Br)c1,13
CCCCC1=CC2=CC(=O)C(C)(OC(=O)CC)C(=O)C2=CN1C(CO)CO (centres undefined),3
CCOC(=O)C(=O)N1CCC(C(=O)OC)CC1,9
Cn1ncc2c(=O)[nH]cnc21,13
Cc1ccc2oc(=O)c(/C=C(\O)c3ccco3)nc2c1,5
COCCCNC(=S)N(Cc1ccccc1)Cc1ccc(F)cc1,18
CN(C)c1cccc(N(C)C)c1CNC(=O)C(C)(C)C,22
COc1ccccc1NC(=O)N1CCN(c2ccc3nncn3n2)CC1,16
O=C(NCCc1c[nH]c2ccccc12)c1cncc(Br)c1,13
CCO[C@@H]1OC(C(=O)O)=C[C@H](c2ccc(C(F)(F)F)cc2)[C@H]1CCCO,8
CCOc1cc(C(=O)Nc2ccc(F)cc2)cc(Br)c1OC,21

# Four records drawn at random from the list so far, as already listed:
compound,Calb biofilm kill
CCCCC1=CC2=CC(=O)C(C)(OC(=O)CC)C(=O)C2=CN1C(CO)CO (centres undefined),3
COCCN(C(=S)Nc1ccc(C)cc1C)C(C)c1cccs1 (centres undefined),18
COc1ccccc1NC(=O)N1CCN(c2ccc3nncn3n2)CC1,16
O=C(NCCc1c[nH]c2ccccc12)c1cncc(Br)c1,13

# Following part
compound,Calb biofilm kill
CCCN1C(=O)/C(=C/c2nc3ccccc3c(=O)[nH]2)c2ccccc21,8
Cc1onc2c(=O)n(-c3ccccc3)nc(-c3ccccc3)c12,14
CCOC(=O)c1c(NC(=O)C2=C(C)NC(=S)NC2c2ccc(F)cc2F)sc(C)c1C (centres undefined),18
Cc1ccc(NC(=O)c2ccc(OCC3CCCO3)cc2)c(C)c1 (centres undefined),14
O=C(Cc1coc2cc3c(cc12)CCC3)OCC(=O)N1CCCC1=O,8
CCCCc1c(O)nc(SCC(=O)c2ccccc2)n(-c2ccccc2OC)c1=O,6
COc1cccc(CN2CCNC(=O)C2CC(=O)NCc2cn3ccccc3n2)c1OC (centres undefined),12
CC(C)Cn1c(N)c(C(=O)COC(=O)c2ccc([N+](=O)[O-])o2)c(=O)n(C)c1=O,21
Cc1ccc(NC(=O)COc2ncnc3cc([N+](=O)[O-])ccc23)cc1S(=O)(=O)N1CCOCC1,16
CC(=O)c1ccc(N2CCN(C(=O)c3cccc(Oc4ccccc4)c3)CC2)cc1,10
COCCCNC(=O)CCn1c(=O)c2ccccc2n(Cc2cccc([N+](=O)[O-])c2)c1=O,22
O=C(O)c1ccc(N/N=C/c2cn(Cc3ccccc3F)c3ccccc23)cc1,13
N/C(Cc1ccccc1)=N\OC(=O)c1cccc2ccccc12,9
O=C(O)CCCCCCCCCCP(=O)(c1ccccc1)c1ccccc1,18
Cc1cc(Cl)c(S(=O)(=O)N(C)C)cc1OCC(N)=O,7

# (further entries)
compound,Calb biofilm kill
COC(=O)NNC(=O)COc1ccccc1C,16
Cc1cc(NC(=O)c2c(Br)c(C)nn2C)no1,11
COc1ccc(C/C(N)=N/OC(=O)c2cccc([N+](=O)[O-])c2)cc1,13
CC(=O)OC(C(=O)NCCN1CCOCC1)c1c(F)cccc1F (centres undefined),21
CCc1ccc(NC(=O)C(=O)NCC(O)c2ccccc2)cc1 (centres undefined),3
COC(=O)c1sc2ccccc2c1NC(=O)c1ccc(S(=O)(=O)N2CC(C)CC(C)C2)cc1 (centres undefined),11
CC(=O)C(=Cc1cc(C)n(-c2ccccc2)c1C)C(C)=O,-2
CC(OC(=O)CCC(=O)c1cccs1)C(=O)Nc1ccccc1[N+](=O)[O-] (centres undefined),12
O=C(CN1CCCCC1)NC(=O)NCc1ccccc1,12
Cc1ccc(/C=N/N2CCN(Cc3ccccc3)CC2)cc1,5
CC(=O)c1c(C)[nH]c(C(=O)Nc2ccc(Cl)c(S(=O)(=O)N(C)C)c2)c1C,16
O=C(C1=C[C@H](c2csc3ccccc23)C[C@H](OCc2ccc(CO)cc2)O1)N1CCN(Cc2ccc3c(c2)OCO3)CC1,17
CN(C)c1ccc(C2C3CCCc4ccccc4C3=NN2C)cc1 (centres undefined),27
CCCNc1ccc(S(=O)(=O)N(CC)CC)cn1,0
CCc1nc(C)ccc1OCC(=O)N1CCc2c([nH]c3ccccc23)C1c1ccccn1 (centres undefined),17

# Among those listed so far, two contain a tert-butyl group:
compound,Calb biofilm kill
CC(C)(C)c1cc[n+](-c2nc([O-])sc2C=O)cc1,19
CN(C)c1cccc(N(C)C)c1CNC(=O)C(C)(C)C,22

# Following part:
compound,Calb biofilm kill
O=c1c(Cc2c(F)cccc2Cl)c(O)ccn1C1CCCCCC1,14
Cc1ccc(NC(=O)CCS(=O)(=O)c2cccc3nonc23)cc1,5
O=C(CNC(=O)c1ccncc1)N/N=C/c1ccc(O)cc1O,24
CCOCCCNS(=O)(=O)c1ccc(NC(=O)CN2C(=O)c3ccccc3C2=O)cc1,15
CCOc1ccccc1-n1c(C)cc(C=O)c1C,9
COc1ccc(NC2=C3CC(C)CC=C3N(c3ccc(OC)cc3)C2=O)cc1 (centres undefined),23
Cc1noc(C)c1C(=O)NC(C)C12CC3CC(CC(C3)C1)C2 (centres undefined),18
Cc1ccc(S(=O)(=O)N(C)c2c(C)ccc(S(N)(=O)=O)c2C)cc1,14
COc1ccc(N(CC(=O)N/N=C/c2cccs2)S(=O)(=O)c2ccccc2)cc1,14
CC1(c2nnc(-c3ccncc3)o2)CC(c2c(Cl)cccc2Cl)=NO1 (centres undefined),-1
O=C(Nc1nnc(SCc2ccc(F)cc2)s1)C1CC(=O)N(Cc2ccccc2)C1 (centres undefined),4
C=CCNc1nc(Nc2ccc([N+](=O)[O-])cc2)nc(N2CCCC2)n1,4
Cc1cc(Oc2nc3c(C)cccn3c(=O)c2/C=C(\C#N)S(=O)(=O)c2ccc(Cl)cc2)ccc1Cl,25
COCCN(C(=O)Cn1nnc2ccccc21)C(C(=O)NC1CCCCC1)c1ccc(OC)cc1OC (centres undefined),6
Cc1nc2cc(NC(=O)c3ccc(N4C(=O)CCC4=O)cc3)ccc2s1,6

# (further entries)
compound,Calb biofilm kill
CC(Sc1nc(-c2ccco2)nc2c1c(=O)n(C)c(=O)n2C)C(=O)O (centres undefined),18
Cc1ncc(CN2CCCC(CCC(=O)NCc3ccc(F)c(F)c3)C2)s1 (centres undefined),24
CCOc1ccc(N2CC(O)(c3cccs3)[N+]3=C2CCCC3)cc1 (centres undefined),20
Cc1ccc(OCC(=O)NCc2ccc3c(c2)OCO3)c([N+](=O)[O-])n1,1
O=C(NNc1ncccc1Cl)c1c(Cl)cccc1Cl,16
CCc1ccc(CN(C)C(=O)CCc2nnc(Cc3cccc(C)c3)o2)nc1,19
COc1cc(NC(=O)c2cccc([N+](=O)[O-])c2)ccc1NC(=O)c1ccco1,8
CCNc1nc(-c2cc(C)n(Cc3ccco3)c2C)cs1,0
COc1ccc(-c2[nH]c3ccccc3c2SCCNC(=O)c2cc3ccccc3oc2=O)cc1,18
O=C(Nc1ccc(N2CCN(C(=O)c3ccc(Cl)cc3)CC2)cc1)c1ccc([N+](=O)[O-])o1,-1
COc1cccc2sc(N(CCCN(C)C)C(=O)c3sc4ccccc4c3Cl)nc12,12
Cc1sc(NC(=O)Nc2ccccc2)c(C(N)=O)c1C,19
CCS(=O)(=O)Nc1cccc(C2=NN(S(C)(=O)=O)C(c3ccccc3)C2)c1 (centres undefined),-5
O=C(CSc1nnc(-c2cccc(S(=O)(=O)N3CCCC3)c2)n1-c1ccccc1)Nc1cccc(C(=O)O)c1,19
CC(C)/C=C1\CC/C(=C\c2ccc(N(C)C)cc2)C1=O,8

# New compounds follow
compound,Calb biofilm kill
O=C(NCCCN1CCOCC1)c1ccc(Sc2ccc(F)cc2)c([N+](=O)[O-])c1,8
O=[N+]([O-])c1ccc(Sc2ccccn2)nc1,23
CC(C)(C)c1ccc(S(=O)(=O)N2CCN(c3ncccn3)CC2)cc1,7
COC(=O)N/N=C/c1cc(C)n(-c2cccc3ccccc23)c1C,14
O=C(NC(Cc1c[nH]c2ccccc12)C(=O)Nc1ccc(F)c([N+](=O)[O-])c1)c1cccs1 (centres undefined),8
COc1ccc(C(=O)OCC(=O)NCC2CCCO2)cc1[N+](=O)[O-] (centres undefined),12
O=C(NN=C1CCCCCC1)c1ccc(Br)o1,10
COc1ccc(NC(=O)COC(=O)c2c(F)cccc2Cl)cc1OC,-13
CN(C)/C(=N\S(=O)(=O)c1ccccc1)c1ccc([N+](=O)[O-])cc1,12
COC(=O)Nc1ccc(SCC(=O)c2ccccc2)cc1,19
CC1=CS(=O)(=O)CC1Sc1nc2ccccc2[nH]1 (centres undefined),18
Cc1cc(OCC(=O)N2CCCCCC2)ccc1[N+](=O)[O-],12
CCOc1cc(CNCCO)cc(Br)c1OCc1ccccc1,16
CC[C@@H]1CC=C[C@H]2[C@H]1C(=O)N(Cc1ccccc1)[C@H]2c1cc(C)ccc1F,16
CCOc1ccccc1NC(=O)Cc1c(F)cccc1Cl,41

# (list continues)
compound,Calb biofilm kill
COc1ccc(C(=O)Nc2cccc(NC(C)=O)c2)cc1OC,9
CC(O)CSc1nc2c(c(=O)n(C)c(=O)n2C)n1CCCc1ccccc1 (centres undefined),17
COc1cccc(N/C(SCc2ccccc2Cl)=C(/C#N)C(=O)NCc2cccs2)c1,7
Oc1ccc(Cl)cc1Cc1cc(Cl)ccc1O,12
O=C(O)COc1ccc(/C=C/c2nc3ccc([N+](=O)[O-])cc3s2)cc1,13
Cc1c(C(=O)OCC(=O)Nc2c(C)n(C)n(-c3ccccc3)c2=O)cccc1[N+](=O)[O-],2
Cc1cccc(Cn2c(O)c(N=NC(=S)Nc3ccccc3F)c3ccccc32)c1,0
Cc1ccc(C(=O)NN2C(=O)C3C4C=CC(C4)[C@@H]3C2=O)cc1 (some centres undefined),19
Cc1ccc(-c2cc(C(F)F)n3ncc(C(=O)N4CCc5ccccc54)c3n2)cc1,14
O=C(OCC(=O)N1CCCc2ccccc21)c1cccnc1Cl,1
Cc1cc(C(=O)NNC(=O)CCCCC(=O)NNC(=O)c2cc(C)[nH]n2)n[nH]1,5
Cc1c(NC(=O)CN2C(=O)NC(C)(c3ccc4c(c3)OCCO4)C2=O)c(=O)n(-c2ccccc2)n1C (centres undefined),17
Cc1nn(-c2ccccc2)c(N)c1-c1ccccc1,18
COCCCNC(=O)/C=C/c1c(Cl)cccc1Cl,10
O=C(Nc1nccs1)c1ccc(-c2cccc([N+](=O)[O-])c2)o1,21

# (more compounds)
compound,Calb biofilm kill
CC(C)Cn1c(/C=C/c2ccccc2)nc2ccccc21,14
O=C(NCC(=O)N(Cc1ccco1)C(C(=O)NC1CCCC1)c1ccncc1)c1cccs1 (centres undefined),11
O=[N+]([O-])c1ccc(N2CCN(C(=S)Nc3ccc(F)cc3F)CC2)cc1,14
CC(=O)Nc1cc[n+](C(C)C(=O)c2ccc(Cl)cc2)cc1 (centres undefined),7
COc1ccc(OCC(=O)Nc2cc(C)c(Cl)cc2OC)c([N+](=O)[O-])c1,10
O=C(CN1c2ccccc2Sc2ccccc21)N/N=C/c1ccccc1,-5
Cc1cc(C)cc(N(CCC#N)C(=O)CSC2=Nc3ccccc3C3CC=NN23)c1 (centres undefined),12
COc1ccc(C(=O)NNC2=NCCCCC2)cc1,13
COc1cccc(/C=N/NC(=O)c2nc(-c3ccccc3)cc(-c3ccccc3)n2)c1O,22
O=[N+]([O-])c1ccc(C2(O)CN(c3ccccc3)C3=[N+]2CCS3)cc1 (centres undefined),14
Cc1ccc(SCc2ccc(C(=O)N3CCCC3)cc2)cc1,9
CC1=C(C(=O)OCC(C)C)C(c2cccs2)NC(=S)N1 (centres undefined),-3
COC(=O)c1ccc(S(=O)(=O)N2CCN(C)CC2)n1C,-2
Cc1ccc(CNC(=O)CSc2nc3[nH]ncc3c(=O)[nH]2)cc1,11
COc1ccc(/C=[N+](\[O-])C2N(c3ccccc3)C(=S)SC2(C)C)cc1OC (centres undefined),16

# Next section
compound,Calb biofilm kill
Cc1cc2ccc3ccccc3c2cc1CN(C)C,3
CCOC(CC(=O)NNC(=O)c1c(-c2c(Cl)cccc2Cl)noc1C)OCC,6
Cc1ccc2c(C)c(C(=O)Nc3c(C)n(C)n(-c4ccccc4)c3=O)oc2c1C,5
C/C(=N\N1CCN(c2ccccc2)CC1)c1ccncc1,17
O=C(/C=C/c1ccc(Cl)cc1)N(c1ccccn1)C1CCCCC1,13
CCOC(=O)c1c(NC(=S)Nc2ccc(C)cc2)sc2c1CCC2,13
CC(C)=CCN1CCNC(=O)C1CC(=O)NCc1nc(C)c(C)s1 (centres undefined),-3
COc1ccc(Br)cc1/C=C/C(=O)NCC(=O)O,1

# Sorted by SMILES length (falling): some entries from above.
compound,Calb biofilm kill
Cc1ccc2c(C)c(C(=O)Nc3c(C)n(C)n(-c4ccccc4)c3=O)oc2c1C,5
CCOC(=O)c1c(NC(=S)Nc2ccc(C)cc2)sc2c1CCC2,13
Cc1cc2ccc3ccccc3c2cc1CN(C)C,3
